Screening results: PubChem BioAssay, several laboratories
Mtb hypoxia rep: Mtb hypoxia fluorescent reporter inhibition. fluorescence inhibition, % (concentration not given with the values). M. tuberculosis hypoxia-regulated fluorescent reporter, fluorescence. 300,000 tested, 0.1% active;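 active = 35 to 45% if threefold the growth effect, above 45% if 1.5-fold the growth effect; inactive = the rest, general growth blockers included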;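 also: wells of about 50 µL received 100 nL stock; 0% = vehicle wells and 100% = reference inhibitor wells; whole bacteria with a GFP reporter of the hypoxia response; strong numbers were not always called active; many hits fall short of the cut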
ugtP null kill: compounds lethal to S. aureus RN4220 ugtP deletion mutant; OD600 growth, 16 h; some inactives read as strong as hits; growth inhibition, % (concentration not given with the values); 330,000 tested, 0.54% active; AID 1259309;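 active = z-score under -3 and OD600 up to 0.15 on both plates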;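 also: plate controls were untreated wells for no effect and antibiotic for full effect; wells of about 80 µL received 100 nL stock; the first replicate is given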
Bead autofluor: compound fluorescence in toxin protease inhibitor counterscreen; 360,000 tested, 3.1% active; compound autofluorescence counterscreen, microsphere flow cytometry; hits give high values; fluorescence intensity (concentration not given with the values);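 active = at least 3 SD above the mean of all compounds, about 16000 in these data; inconclusive = too few beads counted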;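 also: 100 nL of 1 mM stock went into each well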
Sa RN4220 lethal: S. aureus RN4220 growth inhibition | 330,000 tested, 0.33% active | AID 1259311 | inhibition, % (test concentration not listed) | OD600, 16 h;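 active = z-score of -3 or lower and OD600 up to 0.18 on both plates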;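 also: plate controls were untreated cells for no effect and reference antibiotic for full effect; stock transfer was 100 nL into about 80 µL; one replicate is shown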
BJeLR viability: kills HRASV12-expressing BJeLR cells. AID 1554. BJeLR (HRASV12) viability, CellTiter-Glo ATP luminescence, 48 h; reference of the scale not given here. 300,000 tested, 0.17% active. inhibition, % (no concentration beside the values);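 active = replicate mean above 50%; inconclusive = above 50% but judged a plate artefact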;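 also: 50 nL library stock added to about 25 µL; numbers are from one replicate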
PrP 5UTR inh: suppresses PrP 5' UTR mRNA reporter expression; cell-based PrP 5' UTR mRNA reporter, plate reader; inhibition, % (no concentration beside the values); 340,000 tested, 0.35% active; AID 488862;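 active = every replicate at 50% or more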;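 also: 0 = median of the neutral control wells; tested in H4 reporter cells; numbers are from one replicate; inactives centre near -14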
Mtb hypoxia rep growth: further read-out of Mtb hypoxia rep, marked with its call; growth inhibition, %; measured here: M. tuberculosis growth (absorbance);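 0% = vehicle and 100% = reference antibiotic; read after six days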
* marks the source's active call; other numbers are inactive results; u = inconclusive; x = no result given; & = joins results of further samples. Not a hit list; about 3.9% have a hit in one of these screens.

SMILES	Mtb hypoxia rep	Mtb hypoxia rep growth	ugtP null kill	Bead autofluor	Sa RN4220 lethal	BJeLR viability	PrP 5UTR inh
COc1ccccc1OCC(O)CNCc1ccc2c(c1)OCO2 (centres undefined)	-7	4	-1	u	5.2	-5	-4
CCCN(CC(=O)Nc1cc(C)on1)CC(=O)Nc1ccc(F)c(F)c1F	1	4	4	x	4.4	x	-18
CCCCN(c1ccccc1)S(=O)(=O)c1cccc2cccnc12	4	2	12	4192	12	-7	-21
Cn1c(OCc2cccnc2)nc2c1c(=O)n(Cc1ccc(Cl)cc1)c(=O)n2C	0	-3	-5	9627	0.3	-2	-9
COc1ccc(C(C(=O)NC(C)(C)C)N(CCO)C(=O)CCC(=O)Nc2cc(C)on2)cc1 (centres undefined)	2	0	8	3695	3.0	7	-24
Cc1ccc(S(=O)(=O)NCc2ccc3[nH]c(C)cc3c2)cc1	-4	0	3	4738	-5.7	8	-5
COc1cc(C(CC(=O)Nc2ccc(C)cn2)N2Cc3ccccc3C2=O)cc(OC)c1OC (centres undefined)	14	13	13	3096	3.2	8	-9
CCOc1ccc(-c2nnc(-c3ccco3)o2)cc1OCC	3	3	3	8565	6.6	1	-22
CC(C)N(CCNC(=O)c1cn(C)c2ccc(S(=O)(=O)N(C)C)cc2c1=O)Cc1ccccc1	x	x	-8	4267	-7.9	-6	-20
Cc1ccc(NC(=O)c2ccc(CSc3ccccn3)cc2)c(O)c1	-1	4	-5	5454	-4.4	-2	-22
CC(=O)c1cccc(N(C(=O)CS(=O)CC(=O)Nc2ccc(F)cc2)C(C(=O)NC2CCCCC2)c2ccc(C)o2)c1 (centres undefined)	0	14	3	1995	-3.9	-5	-14
COC(=O)c1cn(NC(=O)Cc2cccc(C(F)(F)F)c2)c(=O)c2ccccc12	4	3	3	3971	-0.9	x	-27
CCOc1cc(C(=O)Nc2cc(C)ccn2)cc(OCC)c1OCC	-2	14	0	9836	-1.5	1	-16
COc1ccc(C(=O)/C=C/c2cc(C(=O)O)cc3c2OCOC3)c(O)c1	-2	2	22	3776	20	-6	-9&-21
CC(=O)Nc1ccc(S(=O)(=O)NCC(CCC(=O)O)C(F)(F)F)cc1 (centres undefined)	-2	2	1	3339	1.8	-5	-12
CN(C(=O)COC(=O)c1sc2ccccc2c1Cl)C1CCCCC1	5	14	-6	2041	6.6	5	-20
O=c1n(Cc2ccccc2)c2cc(Cl)cnc2n1Cc1ccccc1	x	x	-8	4734	-7.0	-1	-45
COc1ccc(NC(=O)N(C)CC2Oc3c(NC(=O)Nc4ccc5c(c4)OCO5)cccc3C(=O)N(C(C)CO)CC2C)cc1 (centres undefined)	4	5	0	x	5.8	x	x
O=C(C1CC(Cl)CN1S(=O)(=O)c1ccc(Cl)cc1)N1CCOCC1 (centres undefined)	10	4	6	4639	4.6	8	-29
Cc1cnc(C(=O)OCC(=O)c2cc(C)n(C)c2C)cn1	8	10	8	4079	4.8	0	-32
CCN(CC)S(=O)(=O)c1ccc(N=Nc2c(N)[nH]c(=O)[nH]c2=O)cc1	-2	0	-9	5205	-0.4	4	-11
C/C(CC1(O)C(=O)N(Cc2ccccc2)c2ccccc21)=N\O (centres undefined)	x	x	x	3130	x	2	-10
CC(CNC(=O)c1ccc(N)cc1)NC(=O)c1ccc(N)cc1 (centres undefined)	12	5	5	4254	0.8	-2	-19
COc1cccc(C=Nn2c(CO)nc3ccccc32)c1OC	6	12	-6	x	4.9	x	x
O=C(CN1CCN(c2ncccn2)CC1)Nc1ccccc1-n1cccc1	-4	-4	8	9113	6.4	22	8
Cc1ccc(NC(=O)c2nnn(CC(=O)Nc3ccc4c(c3)OCO4)c2N)cc1C	8	-13	7	5365	0.4	-6	-14
CN1CC2C3C(=O)N(Cc4ccccc4)C(=O)C3[C@](Cc3ccccc3)(C1=O)N2C(=O)c1ccc(F)cc1 (some centres undefined)	19	6	7	x	4.9	x	x
CCOc1cc(/C=N/n2c(C)nc3sc(C)c(C)c3c2=O)ccc1O	x	x	x	4363	x	6	-20
Cn1cc(CN(CCO)Cc2cccs2)c(-c2cccc(Cl)c2)n1	6	10	5	3649	5.9	1	10
C=CCSc1nc(N)c(C(=O)Nc2ccccc2OC)cc1C(=O)Nc1ccccc1	x	x	-1	3662	14	1	-6
COC(=O)c1cc(Br)c(=O)n(Cc2ccco2)c1	19	4	7	3404	5.8	-1	-19
CC(C#N)Sc1ccc(S(=O)(=O)N2CCCC2)cn1 (centres undefined)	11	-5	0	4170	-0.3	x	-28
Cc1ccc(Cl)cc1NC(=O)NCc1ccccn1	11	2	9	4055	3.9	2	2
COc1ccc(C(=O)Nc2nnc(S(=O)(=O)Cc3ccc(F)cc3)s2)cc1	-2	-2	4	4490	12	-3	-6
COc1ccccc1-n1c2c(cc(C(=O)N3CCC(C)CC3)c1=O)C(=O)CC(C)(C)C2	x	x	3	5372	2.2	-9	-13
CCn1c(=O)c(C(C)=O)c(O)c2ccccc21	-5	5	7	4402	8.2	7	-13
CCC(C)[C@H](NC(=O)N1CC(=O)Nc2ccccc21)C(=O)N[C@H](C(=O)O)c1ccccc1 (some centres undefined)	1	-5	1	x	2.8	-1	-22
Cc1ccc(S(=O)(=O)c2nnn3c2nc(Nc2cccc(C)c2)c2ccccc23)cc1	-7	-1	0	2552	4.1	-15	5
Cc1ccc(S(=O)(=O)NCc2ccncc2)cc1C(=O)NCC(C)C	0	8	8	6185	-0.1	4	-19
Cc1ccc(-n2nc3ccc(N)cc3n2)cc1C	6	12	-4	2528	4.4	-10	1
CCOc1ccc(CCNC(=O)COC(=O)/C=C/c2ccco2)cc1OCC	10	5	0	5730	2.6	4	-18
CCc1ccc(OCCCC(=O)NCc2ccco2)cc1	-1	-2	-2	2628	5.5	9	-18
CC(C)c1cc(C(=O)NN=Cc2ccoc2)cs1	-3	1	-2	x	2.5	x	x
CNC(=O)c1ccsc1NC(=O)C1CCCN1S(=O)(=O)c1cccs1 (centres undefined)	7	0	2	u	1.6	-2	-23
O=C(NC1(O)C(=O)c2ccccc2C1=O)c1c(Cl)cccc1Cl	2	-6	-3	x	-1.6	-5	-22
O=C(Oc1ccc(Br)cc1)c1n[nH]c(=O)c2ccccc12	-1	-4	1	2581	7.1	-1	-6
COCc1cc(C)nc(SCC[N+](C)(C)CC(=O)Nc2cccc(C(F)(F)F)c2)c1C#N	7	8	-6	4237	-22	-8	-9
CCC(C)(C)NC(=O)C(c1ccccc1F)N(Cc1ccco1)C(=O)Cn1nnc2ccccc21 (centres undefined)	4	7	-10	2835	-13	9	-25
Cc1ccc(C(=O)OCN2C(=O)c3ccccc3C2=O)cc1S(=O)(=O)N1CCOCC1	-7	3	8	x	3.4	0	-6
O=C(/C=C/c1ccc([N+](=O)[O-])cc1)/C=C/c1ccco1	x	x	x	4672	x	5	-13
O=C(c1ccccc1)c1ccccc1N=Cc1c(O)[nH]c(=O)[nH]c1=O	2	7	2	4301	-1.5	-8	-23
CN(CC(=O)Nc1ccccc1Cl)C(=O)COC(=O)CNC(=O)c1ccc(Br)o1	4	11	-6	5743	3.9	5	13
NC(=O)C1CCN(C(=O)C2CC(=O)N(c3ccc(F)cc3)C2)CC1 (centres undefined)	6	-6	11	4293	4.2	-6	4
CCN1CCN(C(=S)NCCOC)CC1	0	8	17	2475	2.5	5	-4
O=c1ccc(-c2ccccc2)nn1Cc1ccc(F)cc1	1	-6	-3	2936	5.7	6	9
CC(NC(=O)C1CCN(C(=O)c2ccc(F)cc2)CC1)c1ccc(S(N)(=O)=O)cc1 (centres undefined)	-1	4	2	4025	2.8	x	2
COc1ccc2cc(C(C)C(=O)N3CCC(C(N)=O)CC3)ccc2c1 (centres undefined)	-5	5	-1	2934	4.4	-2	-15
O=C1Nc2cc(C(=O)N3CCN(c4ccc(F)cc4)CC3)ccc2NC1CSCc1cccc(F)c1 (centres undefined)	x	x	x	12877	x	6	-18
CN(C)c1ccc(SC#N)cc1	1	5	3	3647	3.0	-8	-34
CNC(=S)NCCN1CCOCC1	5	3	1	2565	3.5	-16	-1

Continued; it opens with the 5 that closed the last part.
SMILES	Mtb hypoxia rep	Mtb hypoxia rep growth	ugtP null kill	Bead autofluor	Sa RN4220 lethal	BJeLR viability	PrP 5UTR inh
CC(NC(=O)C1CCN(C(=O)c2ccc(F)cc2)CC1)c1ccc(S(N)(=O)=O)cc1 (centres undefined)	-1	4	2	4025	2.8	x	2
COc1ccc2cc(C(C)C(=O)N3CCC(C(N)=O)CC3)ccc2c1 (centres undefined)	-5	5	-1	2934	4.4	-2	-15
O=C1Nc2cc(C(=O)N3CCN(c4ccc(F)cc4)CC3)ccc2NC1CSCc1cccc(F)c1 (centres undefined)	x	x	x	12877	x	6	-18
CN(C)c1ccc(SC#N)cc1	1	5	3	3647	3.0	-8	-34
CNC(=S)NCCN1CCOCC1	5	3	1	2565	3.5	-16	-1
CCCCN(C(=O)c1ccccc1Br)C1CCS(=O)(=O)C1 (centres undefined)	3	4	-1	5850	4.4	-3	-11
O=S(=O)(c1ccc(SCc2ccccc2)nc1)N1CCCCCC1	7	5	9	6566	1.5	x	-15
COc1ccc(N(CC(=O)Nc2cccnc2)S(C)(=O)=O)cc1	8	0	1	4265	2.9	-3	-21
N#CCn1cc(C=NNC(=O)c2cc3c(ccc4ccccc43)o2)c2ccccc21	0	-4	-4	x	-7.4	x	x
Cc1cc(C)n(-c2nc(NCc3cccnc3)c3c4c(sc3n2)COC(C)(C)C4)n1	x	x	1	2156	3.8	x	-5
CCC1CCc2c(sc(NC(=O)c3ccoc3C)c2C(N)=O)C1 (centres undefined)	x	x	2	2364	-3.5	1	-24
COc1ccc(NC(=O)CSc2nc(NS(=O)(=O)c3ccccc3)cc(=O)[nH]2)cc1	7	0	10	2905	2.6	-19	-12
O=C(NCCCl)NNc1c(Cl)cc(Cl)cc1Cl	-3	-7	-3	4570	-0.5	1	3
CCOc1ccc(S(=O)(=O)Nc2cc(SCC(=O)O)c(O)c3ccccc23)cc1	9	2	-2	3108	15	5	-3
Cc1ccc(S(=O)(=O)Nc2ccc(C(=O)NCc3cccnc3)cc2)cc1	7	14	6	4413	0.0	-3	-10
CC(=O)Nc1ccc(NC(=O)c2ccccc2N(C)S(=O)(=O)c2ccc(C)cc2)cc1	-6	-1	-1	3292	-3.9	8	-4
Nc1c(N2CCN(c3ccccc3)CC2)c2ccccc2oc1=O	-2	1	2	7751	5.6	-6	-7
COc1ccc(C(CNC(=O)c2cc(F)c(F)c(F)c2F)N2CCOCC2)cc1 (centres undefined)	12	9	4	5227	4.9	3	-13
C[C@H](CO)N1C[C@H](C)[C@@H](CN(C)C)Oc2c(NS(=O)(=O)c3cccs3)cccc2C1=O	4	2	6	4194	1.3	x	-11
O=C(NCC(c1ccc(F)cc1)N1CCOCC1)c1c(F)cccc1F (centres undefined)	11	5	3	4115	3.7	-2	-37
Cc1ccc(S(=O)(=O)/N=C/c2ccco2)cc1	x	x	x	2637	x	2	-30
CC(=NNC(=O)CNC(=O)c1ccccc1F)c1ccco1	-2	5	11	x	7.3	x	x
COc1ccc(C(=O)N[C@H](C(=O)OCn2nnc3ccccc3c2=O)C(C)C)cc1	-1	6	3	5629	2.4	x	-21
Cc1ccc(OCC(=O)Nc2cccc(C)n2)c(C)c1	x	x	12	3885	1.8	-12	-62
Cc1ccc(NC(=O)c2sc3nc(CCl)[nH]c(=O)c3c2C)c(C)c1	16	11	0	3703	12	x	-37
Cc1cc(OCC(=O)NCCCN(C)C)cc(C)c1Br	23	6	-7	3383	-15	-9	0
S=c1[nH]nc(Cc2ccc(Cl)cc2)n1-c1ccc2c(c1)OCCO2	9	16	10	3961	-3.1	4	-18

Part of the list above, as a markdown table:
| smiles | Mtb hypoxia rep | Mtb hypoxia rep growth | ugtP null kill | Bead autofluor | Sa RN4220 lethal | BJeLR viability | PrP 5UTR inh |
| --- | --- | --- | --- | --- | --- | --- | --- |
| O=C(NCCCl)NNc1c(Cl)cc(Cl)cc1Cl | -3 | -7 | -3 | 4570 | -0.5 | 1 | 3 |
| CCOc1ccc(S(=O)(=O)Nc2cc(SCC(=O)O)c(O)c3ccccc23)cc1 | 9 | 2 | -2 | 3108 | 15 | 5 | -3 |
